KCNQ2 pot = potentiators of rat KCNQ2 potassium channel; Potassium voltage-gated channel subfamily KQT member 2 (Rattus norvegicus), O88943; CHO-K1 KCNQ2, FluxOR thallium flux fluorescence; active compounds read high; B-score at 10 µM; 310,000 tested, 0.54% active; AID 2239, 2010;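 active = fluorescence ratio B-score at least 3 SD of library B-scores, with initial fluorescence B-score within 3 SD, cut at about 5.3 in these data; same plate scores as AID 2156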;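 also: B-score of peak minus minimum over baseline fluorescence ratio after K+ and Tl+ stimulus; positive B-score means potentiation of KCNQ2 with more thallium influx and brighter signal; only the inactives scoring about 0 or higher are listed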
Target sequence (O88943 whole entry, looked up): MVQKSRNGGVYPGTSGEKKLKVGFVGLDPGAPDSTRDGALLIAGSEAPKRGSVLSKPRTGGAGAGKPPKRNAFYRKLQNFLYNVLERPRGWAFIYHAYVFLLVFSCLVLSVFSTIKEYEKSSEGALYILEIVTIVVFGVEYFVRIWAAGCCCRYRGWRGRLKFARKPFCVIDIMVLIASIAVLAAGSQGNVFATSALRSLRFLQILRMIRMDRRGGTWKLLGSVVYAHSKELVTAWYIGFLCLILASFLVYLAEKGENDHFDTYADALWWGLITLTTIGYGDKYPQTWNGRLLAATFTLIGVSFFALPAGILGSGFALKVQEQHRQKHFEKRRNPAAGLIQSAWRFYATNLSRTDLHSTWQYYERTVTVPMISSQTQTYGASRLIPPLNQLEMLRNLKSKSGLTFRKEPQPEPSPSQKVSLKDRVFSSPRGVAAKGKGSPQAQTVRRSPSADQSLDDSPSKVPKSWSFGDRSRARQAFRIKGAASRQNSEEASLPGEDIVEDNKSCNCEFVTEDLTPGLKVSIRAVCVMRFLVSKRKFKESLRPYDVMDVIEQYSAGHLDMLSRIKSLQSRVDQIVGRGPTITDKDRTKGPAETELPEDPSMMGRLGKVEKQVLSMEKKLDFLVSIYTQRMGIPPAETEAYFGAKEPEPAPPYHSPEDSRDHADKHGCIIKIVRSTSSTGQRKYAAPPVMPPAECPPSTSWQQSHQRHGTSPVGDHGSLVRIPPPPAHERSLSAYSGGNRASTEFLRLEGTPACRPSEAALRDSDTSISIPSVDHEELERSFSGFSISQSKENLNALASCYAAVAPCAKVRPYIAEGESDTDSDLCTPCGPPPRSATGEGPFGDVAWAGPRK
KCNQ2 pot baseline = second read-out of KCNQ2 pot, no call of its own (marks repeat the call); B-score; compound at 10 µM; measured here: initial fluorescence intensity artifact check;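 brightness before thallium and not channel activity; 0 = typical well and far values either way flag optical interference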
Numbers without * were called inactive. The list is partial (hit frequency here may not be typical).

SMILES	KCNQ2 pot	KCNQ2 pot baseline
Cc1cc(C)n(-c2nc(NCCCN(C)C)c3c4c(sc3n2)COC(C)(C)C4)n1	0.3	0.09
O=C(OCc1ccccn1)c1ccc(COc2ccc3ccccc3c2)o1	5.4*	-1.8*
Cc1cccc(NC(=O)CS(=O)(=O)c2cn(C)c3ccccc23)c1C	0.31	0.67
Cn1c(C(O)C(O)c2ccccc2)nc2ccccc21 (stereo not drawn)	0.77	1.8
O=C(COc1ccc2ccccc2c1)Nc1ccc(S(=O)(=O)N2CCCCCC2)cc1	0.19	-1.5
CCN1C(Nc2ccccc2)=NC[C@@H]1Cc1ccccc1	0.11	1.7
Cc1[nH]c2ccccc2c1/C=N/n1cnnc1	0.18	1.6
COc1cc(Cl)ccc1OCc1cc(C(=O)NCc2cc(C(C)C)no2)no1	2.4	-0.57
O=C(CN1C(=O)NC2(CCCCC2)C1=O)NCC(=O)Nc1ccc(F)c(F)c1	1.2	1.1
COCCn1c(SCC(=O)N2CC(C)OC(C)C2)nc2c([nH]c3ccccc32)c1=O (stereo not drawn)	0.46	-3.3
O=C(NC1CCS(=O)(=O)C1)c1ccccc1C(=O)c1ccccc1 (stereo not drawn)	0.2	2.5
COC(=O)CN(CCc1ccccc1)S(=O)(=O)c1ccc(OC)c(OC)c1	0.05	-1.5
NC(=O)COC(=O)c1cccc(S(=O)(=O)N2CCN(c3ccc(F)cc3)CC2)c1	0.02	-0.55
COc1ccccc1C(=O)NCCC(=O)NCc1cccs1	0.02	2.8
COCCN(C(=O)c1ccc2ccccc2c1)c1c(N)n(Cc2ccccc2)c(=O)[nH]c1=O	2.3	-0.56
NC(=NCc1ccccc1)c1cccc([N+](=O)[O-])c1	0.96	-1.1
O=C(NCc1ccc2c(c1)OCO2)C1CCN(S(=O)(=O)c2cccc3nsnc23)CC1	1.9	0.06
O=C1OCC(CO)(CO)N=C1NNc1ccccc1Cl	1.9	-0.01
CS(=O)(=O)N(CC(=O)NCCSCc1c(F)cccc1Cl)c1cccc([N+](=O)[O-])c1	2.9	0.31
CON(c1nc(N(C)C)nc(N(C)C)n1)S(=O)(=O)c1ccccc1Cl	0.04	0.91
CCOC(=O)C(=O)Nc1nnc(SCc2ccc(F)cc2)s1	1.4	-2.5
Cc1cc(C)cc(OCC(=O)Nc2ccc(N3CCCC3)cc2)c1	1	0.46
CSc1ncccc1C(=O)Nc1cccc(C)n1	0.89	-0.07
COCCN1C(=O)C(O)=C(C(C)=O)C1c1ccc(OC)c(OC)c1 (stereo not drawn)	0.14	2.2
CC(=O)c1ccc(Oc2cc(-c3ccccc3)nc(-c3ccccc3)n2)cc1	0.67	-0.02

Shown as a markdown table: part of the list above.
| compound | KCNQ2 pot | KCNQ2 pot baseline |
| --- | --- | --- |
| O=C(COc1ccc2ccccc2c1)Nc1ccc(S(=O)(=O)N2CCCCCC2)cc1 | 0.19 | -1.5 |
| CCN1C(Nc2ccccc2)=NC[C@@H]1Cc1ccccc1 | 0.11 | 1.7 |
| Cc1[nH]c2ccccc2c1/C=N/n1cnnc1 | 0.18 | 1.6 |
| COc1cc(Cl)ccc1OCc1cc(C(=O)NCc2cc(C(C)C)no2)no1 | 2.4 | -0.57 |
| O=C(CN1C(=O)NC2(CCCCC2)C1=O)NCC(=O)Nc1ccc(F)c(F)c1 | 1.2 | 1.1 |
| COCCn1c(SCC(=O)N2CC(C)OC(C)C2)nc2c([nH]c3ccccc32)c1=O (stereo not drawn) | 0.46 | -3.3 |
| O=C(NC1CCS(=O)(=O)C1)c1ccccc1C(=O)c1ccccc1 (stereo not drawn) | 0.2 | 2.5 |
| COC(=O)CN(CCc1ccccc1)S(=O)(=O)c1ccc(OC)c(OC)c1 | 0.05 | -1.5 |
| NC(=O)COC(=O)c1cccc(S(=O)(=O)N2CCN(c3ccc(F)cc3)CC2)c1 | 0.02 | -0.55 |
| COc1ccccc1C(=O)NCCC(=O)NCc1cccs1 | 0.02 | 2.8 |
| COCCN(C(=O)c1ccc2ccccc2c1)c1c(N)n(Cc2ccccc2)c(=O)[nH]c1=O | 2.3 | -0.56 |
| NC(=NCc1ccccc1)c1cccc([N+](=O)[O-])c1 | 0.96 | -1.1 |
| O=C(NCc1ccc2c(c1)OCO2)C1CCN(S(=O)(=O)c2cccc3nsnc23)CC1 | 1.9 | 0.06 |
| O=C1OCC(CO)(CO)N=C1NNc1ccccc1Cl | 1.9 | -0.01 |

New compounds follow.
SMILES	KCNQ2 pot	KCNQ2 pot baseline
COc1ccc(CNC(=O)c2n[nH]c3ccccc23)cc1OC	0.77	0.99
CCC(C)(C)NC(=O)CN(C(=O)C(=O)Nc1ccc2c(c1)OCCO2)N1CCOCC1	1.1	0.47
Cc1ccc2c(c1)C(c1ccncc1)=NNC(c1cccnc1)=N2	1.3	0.9
CCOc1ccc(OCCCCN(C)C)cc1	1.5	-0.81
CC1(C)CNC(=O)c2sc(NC(=O)c3ccccc3Cl)nc2C1	2	-1.3
Cn1cc(CNC(=O)C2CCC(=O)N(Cc3ccc(Cl)cc3)C2)cn1 (stereo not drawn)	0.37	0.67
Cc1ccccc1N(CC(=O)NC1CCCCC1)C(=O)CCC(=O)Nc1nccs1	0.09	0.9
COC1CCN(C(=O)C2CCC(=O)N(CCc3cccc(F)c3)C2)CC1 (stereo not drawn)	0.12	-2.2
O=C(O)c1ccccc1C(=O)NCCc1c(C(=O)O)[nH]c2ccc(F)cc12	0.69	-0.36
COc1ccc(/C=C2\C(=O)NCC(=O)N2C)cc1	0.1	0.11
CSc1ncc(Cl)c(C(=O)Nc2ccccc2C)n1	1.1	-0.35
CCn1c(SCC(=O)Nc2nc3ccccc3s2)nc2c(c1=O)SC(C)C2 (stereo not drawn)	4.4	2.4
COc1ccccc1CNc1cncnc1	0.42	-0.01
COc1ccccc1NC(=S)N1CCC(c2nc3cc(C)c(C)cc3[nH]2)CC1	0.58	1.1
COc1ccc(CNC(=O)c2cc3c(=O)n4ccccc4nc3n(CC3CCCO3)c2=N)cc1 (stereo not drawn)	1.7	0.55
COc1ccc(CCN(C(=O)c2ccco2)C(C(=O)NC2CCCC2)c2ccncc2)cc1OC (stereo not drawn)	1.3	-0.22
Cc1cc(C(=O)c2ccccc2)c(NC(=O)CN2CCOCC2)s1	1.2	0.53
COc1ccc(NC(=O)COc2cccc(-n3cnnn3)c2)cc1	0.56	-0.7
COC(=O)C1CCN(C(c2cc(OC)c(OC)c(OC)c2)c2sc3nc(C)nn3c2O)CC1 (stereo not drawn)	0.48	0.88
Cc1cc(NC(=O)COC(=O)c2ccc(S(=O)(=O)N3CCCC3)cc2)no1	1.2	0.6
COc1ccc(CCN2C(=O)CC(NNC(=O)c3ccc(F)cc3)C2=O)cc1OC (stereo not drawn)	1.1	0.41
O=C(NNC(=O)c1cc(-c2ccccc2)nc2ccccc12)c1csc(N2CCOCC2)n1	0.75	-0.11
CC(=O)N1N=C(c2cccc([N+](=O)[O-])c2)OC1c1ccc(Cl)cc1Cl (stereo not drawn)	0.41	0.49
NC(=O)NCC1CC1	0.37	-1
Cc1ccc(S(=O)(=O)N2CC(C)N(C(=O)N3CCOCC3)C2C)cc1 (stereo not drawn)	0.79	-0.89
Remaining list, next part.
SMILES	KCNQ2 pot	KCNQ2 pot baseline
Cc1c(NC(=O)c2ccc3c(c2)OCO3)cccc1-c1nc2ncccc2o1	1.2	-0.62
CCOC(=O)c1ccc(NC(=O)c2cc(S(=O)(=O)N3CCOCC3)ccc2O)cc1	0.76	-0.01
Cc1cc(=O)oc2cc(OC(C)C(=O)Nc3ccc(N4CCCCC4)cc3)ccc12 (stereo not drawn)	0.03	-0.06
COc1ccc(-n2ncc3c(N4CCC(C)CC4)ncnc32)cc1	1.7	-2
O=c1nc2n(Cc3ccccc3)c3ccccc3cc-2c(=O)[nH]1	0.2	-1
Cn1c(=O)[nH]c(=O)c2c1[nH]c(=S)n2Cc1ccc(Cl)cc1	0.02	0.41
CC(C)OP(=O)(OC(C)C)C(NC(=O)c1cccc([N+](=O)[O-])c1)C(N)=O (stereo not drawn)	0.41	2.4
CCC(C)C(=O)Nc1nnc(SCC(=O)N2C(C)CCCC2C)s1 (stereo not drawn)	0.45	-1.1
Brc1ccc(-c2csc(N3CCCCCC3)n2)cc1	0.77	1.3
Brc1ccc(-c2ccc(CNCc3ccccn3)o2)cc1	0.28	0.1
COc1cccc(NC(=O)Cc2nnc(SCC(=O)NC3CCCCC3)n2C)c1	0.09	-0.9
CCOCCCNC(=O)CN1N=C(c2ccc(C)cc2)CCC1=O	0.01	-1.5
O=[N+]([O-])c1ccc(/C=N/NC(=S)Nc2ccccc2F)o1	1.9	-1.8
CC1CCC(NC(=O)CN(C)S(=O)(=O)c2cnc[nH]2)CC1 (stereo not drawn)	0.63	-0.1
N/C(=N\OCc1ccc([N+](=O)[O-])cc1)c1ccccn1	0.59	0.11
COc1ccc(C(=O)Nc2nc3ccc(OC)cc3s2)cc1	0.11	0.43
CC1CCC2C(=O)N(c3cc(Cl)ccc3OC(=O)c3ccco3)C(=O)C2C1 (stereo not drawn)	0.11	0.37
C=CCn1c(=O)c(C(=O)Nc2ccccc2S(N)(=O)=O)c(O)c2ccccc21	5.7*	0.08*
CCOC(=O)c1c2c3c(c(Cl)ccc3[nH]c1=O)C(=O)c1ccccc1-2	0.62	-2.1
COCCNC(=O)CN(C(=O)Cn1nnc2ccccc21)c1ccc(F)c(Cl)c1	1.4	1.3
COc1ccccc1N(CN1C(=O)c2ccccc2C1=O)C(=O)c1cccnc1	1.2	0.17
COCCN1C(=O)C(=O)/C(=C(/O)c2ccc(S(=O)(=O)N3CCOCC3)cc2)C1c1ccc(O)cc1 (stereo not drawn)	0.13	-0.29
CCCCCCSc1cccc(-c2nc3ccc(C)cn3c2NCc2ccccc2)c1	0.01	0.01
Cc1cccc(NC(=O)CSc2nc(=O)n(CCN3CCOCC3)c3c2CCCC3)c1C	0.71	0.56
CCOc1cccc(C(=O)Nc2ccc3oc(Cc4ccc(Cl)cc4)nc3c2)c1	0.67	-0.03
Other records
SMILES	KCNQ2 pot	KCNQ2 pot baseline
COC(=O)Cc1c(C)c2ccc(OC(C)C)cc2oc1=O	0.04	0.53
CCCOC(=O)Nc1sc2c(c1C(N)=O)CCCC2	0.01	1.1
Cc1ccc(C(=O)O)cc1S(=O)(=O)N1CCOCC1	0.97	-1.9
CNC(=O)Cn1c(C)cc(=O)c2cccc(C)c21	0.01	-1.6
COc1ccccc1NC(=O)CCC(=O)c1ccc(-c2ccccc2)cc1	0.43	1.8
Cc1cc(OCCCC(=O)Nc2cccc(-n3cnnn3)c2)ccc1Cl	0.08	-0.19
CCOC(=O)c1nc(N/N=C/c2ccccc2)sc1Br	1.4	0.01
CCCCOc1ccc(C(=O)OC(C)CN(C)C)cc1 (stereo not drawn)	1.2	1.2
O=C(Nc1ccncc1)c1cccc(S(=O)(=O)N2CCOCC2)c1	2	-0.21
Cc1n[nH]c(=O)c2c(NC(=O)CSc3nnnn3-c3ccccc3)oc(C)c12	1.6	1.1
OC(COc1ccc2cc(Br)ccc2c1)CN1CCN(c2ccccn2)CC1 (stereo not drawn)	7.4*	0.71*
Cc1ccnc(N2C(=O)c3ccccc3C2=O)c1	0.63	-1.2
CC(NC(=O)CN1CCN(c2ccc(Cl)cc2)CC1)c1ccccc1 (stereo not drawn)	0.4	-2.2
O=C1C2ON(c3ccccc3)C(c3cccnc3)C2C(=O)N1c1ccc(Cl)c(Cl)c1 (stereo not drawn)	1.7	1.8
Cc1cccc(NC(NC(=O)c2cccnc2)C(Cl)(Cl)Cl)c1 (stereo not drawn)	0.37	1
CCc1ccc2nc3sc(C(=O)O)cc3cc2c1	1.3	-2.6
CSCCC1NC2(C(=O)Nc3c2ccc(Cl)c3C)[C@@H]2C(=O)N(C3CCCC3)C(=O)[C@H]12 (stereo partly drawn)	0.68	-1
CN(C)S(=O)(=O)c1cccc(C(=O)OCC(=O)NC2CCCc3ccccc32)c1 (stereo not drawn)	1.3	-0.33
CCC1CCC/C1=N\NC(=O)c1ccccc1C (stereo not drawn)	0.62	1.4
CCc1cc2c(=O)n(CC(=O)NC3CCCCC3)cnc2s1	0.68	-0.67
COCCNC(=O)/C(C#N)=C/c1ccc(-c2ccc(OC)cc2[N+](=O)[O-])o1	1.5	-2
Cc1ccccc1-n1c(C)cc(/C=C2/C(=N)N3C(c4ccccc4)=CSC3=NC2=O)c1C	0.07	-2
CC(=O)Nc1nc2ccc(NC(=O)c3ccco3)cc2s1	0.14	1.1
Oc1c(C(c2ccccc2)N2CCCCC2)sc2ncnn12 (stereo not drawn)	0.05	-0.35
CC12CCC(=O)N1C(C(=O)OCC(=O)Nc1cc(S(=O)(=O)N3CCCCC3)ccc1Cl)CS2 (stereo not drawn)	1.1	-0.49

Taken from above:
OC(COc1ccc2cc(Br)ccc2c1)CN1CCN(c2ccccn2)CC1 (stereo not drawn) @ KCNQ2 pot: 7.4*
CC(NC(=O)CN1CCN(c2ccc(Cl)cc2)CC1)c1ccccc1 (stereo not drawn) @ KCNQ2 pot baseline: -2.2

Next entries
SMILES	KCNQ2 pot	KCNQ2 pot baseline
CCOC(=O)C(C)Sc1nc2c(c(=O)[nH]c(=O)n2C)n1CCc1ccccc1 (stereo not drawn)	0.7	-0.37
CCOC(=O)Cc1cc(=O)n2[nH]c(C)c(-c3ccc(OC)cc3)c2n1	0.83	1.3
COc1ccc(NC(=O)CN(c2ccccc2)S(=O)(=O)N(C)C)cc1Cl	1.2	-0.13
CC(=O)/C=C\c1ccc(OC(=O)c2cccnc2)cc1	0.09	0.23
CC(OC(=O)CCN=C1NS(=O)(=O)c2ccccc21)C(=O)Nc1ccc(F)cc1Cl (stereo not drawn)	0.32	-0.24
COc1ccccc1OCCOc1ccc(C(=O)c2ccccc2)cc1	0.7	0.66
CCOc1ccc(CCNC(=O)Cn2ccc3cc(S(=O)(=O)N4CCCC4)ccc32)cc1	0.16	-1.3
O=S(=O)(NCc1ccco1)c1ccc2ccccc2c1	0.01	-0.01
CS(=O)(=O)Nc1ccc(-c2n[nH]c(=S)n2-c2ccccc2)cc1	2.2	-2.3
COc1ccc(CNC(=O)CCCCCn2c(SCC#N)nc3cc4c(cc3c2=O)OCO4)cc1	0.26	-1.1
